High-throughput results (PubChem BioAssay)
FPRL1 binder: human FPRL1 ligands by binding competition, primary screen, cell-based, FPR counter-screen, flow cytometry; N-formyl peptide receptor 2 (Homo sapiens), P25090; FPRL1-expressing cells, fluorescent ligand binding inhibition; inhibition, %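 (tested at 6.7 µM)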; 24,000 compounds, 0.3% hits; AID 441, 2006;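 note: 0% = buffer alone and 100% = receptor blocker peptide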
Target sequence (P25090 whole entry, looked up): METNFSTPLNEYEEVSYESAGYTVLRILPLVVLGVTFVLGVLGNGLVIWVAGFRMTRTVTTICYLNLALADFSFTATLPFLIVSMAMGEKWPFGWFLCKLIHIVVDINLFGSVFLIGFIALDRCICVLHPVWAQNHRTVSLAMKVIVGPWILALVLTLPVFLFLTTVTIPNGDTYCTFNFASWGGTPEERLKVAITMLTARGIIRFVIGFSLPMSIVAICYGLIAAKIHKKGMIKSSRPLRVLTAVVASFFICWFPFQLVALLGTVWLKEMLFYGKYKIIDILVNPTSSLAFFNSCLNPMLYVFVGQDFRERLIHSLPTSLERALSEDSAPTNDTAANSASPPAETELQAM
VCAM-1 imaging: inhibitors of TNFa-induced VCAM-1 surface display, imaging, high-content imaging, pooled HUVEC, TNFa stimulus (AID 456) | HUVEC TNFa-induced VCAM-1 surface expression, immunofluorescence imaging; numbers were filed only for top-ranked candidate wells | 10,000 compounds, 0.2% hits | inhibition, % at 5 µM; hits with a dose series show IC50 in µM;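 active = top tenth filtered wells with inhibition above zero that passed visual or statistical confirmation; inactive = the rest, including hits rejected on review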;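 note: 0% = stimulated vehicle wells and 100% = unstimulated cells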
VCAM-1 down: inhibitors of TNFa-induced VCAM-1 surface display, cell-based, plate reader, pooled HUVEC, TNFa stimulus (AID 454). inhibition, % at 5 µM. HUVEC TNFa-induced VCAM-1 surface immunofluorescence, plate reader; numbers were filed only for top-ranked candidate wells. 10,000 compounds, 0.2% hits;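 active = compound among top-ranked inhibitors of TNF-induced VCAM-1 adhesion protein staining, with the hit upheld by image or statistical review; inactive = the rest, including hits rejected on review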;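 note: 0% = TNFa with vehicle and 100% = cells without TNFa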
FPR ligand: human FPR ligands by binding competition, primary screen, cell-based, FPRL1 counter-screen, flow cytometry; AID 440, 2006; fMet-Leu-Phe receptor (Homo sapiens), P21462; inhibition, %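 (tested at 6.7 µM)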; FPR-expressing cells, fluorescent ligand binding; 24,000 compounds, 0.74% hits;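 note: 0% = buffer wells and 100% = receptor blocker peptide wells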
Target sequence (P21462 whole entry, looked up): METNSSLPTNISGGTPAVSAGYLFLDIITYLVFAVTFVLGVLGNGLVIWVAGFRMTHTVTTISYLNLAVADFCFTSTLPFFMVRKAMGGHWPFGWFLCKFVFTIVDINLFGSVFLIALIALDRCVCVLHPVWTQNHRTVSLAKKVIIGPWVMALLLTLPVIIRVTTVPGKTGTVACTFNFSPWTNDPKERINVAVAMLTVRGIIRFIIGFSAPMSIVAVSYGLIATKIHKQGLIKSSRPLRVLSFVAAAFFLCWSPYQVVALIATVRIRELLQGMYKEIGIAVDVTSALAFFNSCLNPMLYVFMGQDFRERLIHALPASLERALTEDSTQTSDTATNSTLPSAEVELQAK
VCAM-1 augmentation: enhancers of VCAM-1 display on endothelial cells, imaging, high-content imaging, pooled HUVEC, TNFa stimulus (AID 457) | 10,000 compounds, 0.2% hits | Pooled HUVEC, TNFa-induced VCAM-1 immunofluorescence imaging; hits of this screen are not shown here | calls only;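 active = a top-ranked rise in VCAM-1 staining upheld on image or statistical review; inactive = the rest, including candidates rejected on review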;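 note: compounds tested at 5 µM in the well; cells exposed to compound for 24 hours before fixing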
* = called active by the depositor; i = inactive; nt = not tested or not shown.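 Rule for the calls, unless noted: active = mean above 30%; inconclusive = self-fluorescent; inactive = the rest.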

SMILES	FPRL1 binder	VCAM-1 imaging	VCAM-1 down	FPR ligand	VCAM-1 augmentation
CCOc1cccc(/C(O)=C2/C(=O)C(=O)N(CCOC)C2c2ccc(C)o2)c1 (configuration not stated)	-11	nt	nt	51*	nt
COCCCN1C(=O)C(=O)/C(=C(/O)c2ccccc2)C1c1ccc2c(c1)OCO2 (configuration not stated)	0	nt	nt	54*	nt
CC1CCc2nn(CC(=O)NCCN3CCCCC3C)cc2C1 (configuration not stated)	-1	i	i	11	i
COCCCN=CC1=C(O)CC(C)(C)CC1=O	-6	nt	nt	8	nt
COc1ccc(OC)c(S(=O)(=O)NCCC2=CCCCC2)c1	-10	i	i	-9	i
Cc1cc(Nc2ccc(F)cc2F)n2nc(C)nc2n1	3	nt	nt	-2	nt
O=C(NCCN1C(=O)C2C3C=CC(C3)C2C1=O)N1CCOCC1 (configuration not stated)	-1	i	i	-1	i
COc1cccc(-n2nnc3c(=O)n(Cc4ccccc4Cl)cnc32)c1	4	nt	nt	4	nt
O=C(O)CN(c1ccccc1)C1SC(=O)NC1=O (configuration not stated)	-5	i	i	3	i
CC(C)N1C(=O)C2C(C(=O)NC3CCCCC3)C3C=CC2(O3)C1C(=O)NC1CCCC1 (configuration not stated)	-3	i	i	5	i
Cc1cnc(C(=O)Nc2nnc(C(C)C)s2)cn1	-6	i	i	-5	i
CSc1ccc(-c2nc(CSCC(=O)N3CCOCC3)c(C)o2)cc1	-1	i	i	1	i
O=C(Nc1ccc2c(c1)OCO2)C(c1ccccc1)N1CCN(C(=O)c2ccco2)CC1 (configuration not stated)	2	nt	nt	0	nt
O=C(c1ccc(COc2ccccc2Cl)o1)N1CCN(Cc2ccc3c(c2)OCO3)CC1	1	nt	nt	1	nt
O=C(Nc1ccccc1C(F)(F)F)c1cc(S(=O)(=O)N2CCC3(CC2)OCCO3)ccc1F	-9	nt	nt	4	nt
COc1ccc(NC(=O)CN2CCN(S(=O)(=O)c3ccc(C(C)C)cc3)CC2)cc1OC	-2	nt	nt	6	nt
COc1ccccc1C1C(C(=O)c2sc(C)nc2C)=C(O)C(=O)N1CCN1CCOCC1 (configuration not stated)	-2	nt	nt	-3	nt
COc1cccc(-c2cc(C(=O)Nc3cc(OC)c(OC)c(OC)c3)no2)c1	1	i	i	1	i
COc1ccc(OC)c(C2=Nn3c(nnc3C3CCCCC3)SC2)c1	1	i	75	6	i
COc1ccc(C2N(c3ccc(OC)cc3)C(=O)C3CCCN32)cc1 (configuration not stated)	0	nt	nt	-1	nt

Compound profiles, from the list above. Screens in order: FPRL1 binder, VCAM-1 imaging, VCAM-1 down, FPR ligand, VCAM-1 augmentation
Results for `Cc1cnc(C(=O)Nc2nnc(C(C)C)s2)cn1` = -6, i, i, -5, i
Results for `COc1ccc(OC)c(C2=Nn3c(nnc3C3CCCCC3)SC2)c1` = 1, i, 75, 6, i
Results for `O=C(Nc1ccccc1C(F)(F)F)c1cc(S(=O)(=O)N2CCC3(CC2)OCCO3)ccc1F` = -9, nt, nt, 4, nt
Results for `COc1ccccc1C1C(C(=O)c2sc(C)nc2C)=C(O)C(=O)N1CCN1CCOCC1` (configuration not stated) = -2, nt, nt, -3, nt
Results for `CSc1ccc(-c2nc(CSCC(=O)N3CCOCC3)c(C)o2)cc1` = -1, i, i, 1, i

(listing goes on)
SMILES	FPRL1 binder	VCAM-1 imaging	VCAM-1 down	FPR ligand	VCAM-1 augmentation
Cc1nn(-c2ccccc2)c2sc(-c3n[nH]c(=S)o3)cc12	-7	nt	nt	-2	nt
COC(=O)c1sc(N2C(=O)C(O)=C(C(=O)c3ccc(C)o3)C2c2ccc(F)cc2)nc1C (configuration not stated)	-8	i	i	5	i
CCCCCOc1ccc(C2C(C(C)=O)=C(C)Nc3ncnn32)cc1OC (configuration not stated)	-6	nt	nt	5	nt
O=C(Cc1ccccc1)Nc1ccc(-c2nnc(-c3ccco3)o2)cc1	-4	nt	nt	3	nt
O=C(c1ccc(Br)o1)N1CCN=C1SCc1cccnc1	-6	nt	nt	-20	nt
O=C(Nc1ccon1)c1cc(-c2ccccc2)nc2ccccc12	-5	i	i	-12	i
CCC(C)(C)n1nnnc1C(c1cc2cc(OC)ccc2[nH]c1=O)N1CCc2ccccc21 (configuration not stated)	-8	i	i	-6	i
Cc1ccc(-c2nn(C)c(=O)c3ccccc23)cc1S(=O)(=O)N1CCCC1	-2	nt	nt	6	nt
Cc1cc(C)n2c(SCCN3C(=O)c4ccccc4C3=O)nnc2n1	0	i	i	-5	i
CN(CCNC(=O)Cn1c(=O)sc2ccccc21)Cc1ccccc1	-2	nt	nt	0	nt

Sorted by count of non-hydrogen atoms (lowest first): 6 of the compounds above.
SMILES	FPRL1 binder	VCAM-1 imaging	VCAM-1 down	FPR ligand	VCAM-1 augmentation
O=C(O)CN(c1ccccc1)C1SC(=O)NC1=O (configuration not stated)	-5	i	i	3	i
COc1ccc(OC)c(S(=O)(=O)NCCC2=CCCCC2)c1	-10	i	i	-9	i
O=C(Nc1ccon1)c1cc(-c2ccccc2)nc2ccccc12	-5	i	i	-12	i
CN(CCNC(=O)Cn1c(=O)sc2ccccc21)Cc1ccccc1	-2	nt	nt	0	nt
CCOc1cccc(/C(O)=C2/C(=O)C(=O)N(CCOC)C2c2ccc(C)o2)c1 (configuration not stated)	-11	nt	nt	51*	nt
COc1ccc(NC(=O)CN2CCN(S(=O)(=O)c3ccc(C(C)C)cc3)CC2)cc1OC	-2	nt	nt	6	nt

Additional compounds.
SMILES	FPRL1 binder	VCAM-1 imaging	VCAM-1 down	FPR ligand	VCAM-1 augmentation
CCN1CCN(CCCNC(=O)C2CCCN(c3nnc(-n4cccc4)s3)C2)CC1 (configuration not stated)	-7	nt	nt	-2	nt
Cc1c(C2Nc3ccccc3NC3=C2C(=O)CC(C)(C)C3)cnn1C (configuration not stated)	4	i	i	-5	i
CC(=O)N1CCc2cc(C(=O)CN3CCN(c4ccccc4F)CC3)ccc21	4	nt	nt	7	nt
CC1(C)OC(=O)C(=CNc2ncccn2)C(=O)O1	3	nt	nt	4	nt
Cc1c(/C(O)=C2/C(=O)C(=O)N(Cc3cccnc3)C2c2cccs2)cnn1-c1ccccc1 (configuration not stated)	-2	nt	nt	12	nt
Cc1ccc(S(=O)(=O)CCC(=O)Nc2ccc3c(c2)OCO3)cc1	0	i	i	3	i
CCOc1cc2[nH]c(=O)n(CCCN3CCCC3=O)c(=O)c2cc1OCC	5	nt	nt	-4	nt
CC(C)C(C(=O)Nc1ccc2c(c1)OCCO2)N1C(=O)c2ccccc2C1=O (configuration not stated)	8	i	i	-4	i
O=C(Cn1ncc2c(=O)oc3ccccc3c21)N1CCCc2ccccc21	7	nt	nt	-1	nt
C=CCNc1nc(NC(C)(C)CO)nc(OCC)n1	4	nt	nt	1	nt

In the list so far, 2 have a Cl atom.
SMILES	FPRL1 binder	VCAM-1 imaging	VCAM-1 down	FPR ligand	VCAM-1 augmentation
COc1cccc(-n2nnc3c(=O)n(Cc4ccccc4Cl)cnc32)c1	4	nt	nt	4	nt
O=C(c1ccc(COc2ccccc2Cl)o1)N1CCN(Cc2ccc3c(c2)OCO3)CC1	1	nt	nt	1	nt

(continued)
SMILES	FPRL1 binder	VCAM-1 imaging	VCAM-1 down	FPR ligand	VCAM-1 augmentation
Cc1ccc(C(c2nnnn2CCC(C)C)N2CCN(C)CC2)cc1 (configuration not stated)	4	i	i	4	i
Cc1nc2c(C(=O)NCCC3=CCCCC3)c[nH]n2c(=O)c1Cl	3	nt	nt	10	nt
CCOC(=O)CN1CC23C=CC(O2)C(C(=O)NC2CCCCCC2)C3C1=O (configuration not stated)	6	nt	nt	3	nt
CCN(CC)CCC(=O)NC(C)(C)Cc1ccc(O)cc1	3	nt	nt	-2	nt
Cc1ccc(-c2noc(CCC(=O)NCc3ccc4c(c3)OCO4)n2)cc1	-3	nt	nt	0	nt
CCn1cc(C(=O)Nc2cc3c(cc2NC(C)=O)OCCO3)c(=O)c2ccc(C)nc21	8	i	i	1	i
CCOC(=O)c1ccc(Oc2nc(NC)nc(OC)n2)cc1	16	i	i	-3	i
COc1ccc(S(=O)(=O)N2CCN(C)CC2)c2ccccc12	-6	nt	nt	-4	nt
CN(C)c1ccc2c(c1)OC(N)=C(C#N)C2c1cccc(F)c1 (configuration not stated)	-2	i	i	5	i
CN1CCc2nc(SCC(=O)Nc3ccc(F)cc3)c(C#N)cc2C1	3	i	i	2	i
CCCn1nnc2sc3c(c2c1=O)CCC(C)C3 (configuration not stated)	8	nt	nt	0	nt
CCOC(=O)C1CCCN(C(=O)C2CCN(S(=O)(=O)N3CCC4(CC3)OCCO4)CC2)C1 (configuration not stated)	20	nt	nt	2	nt
Cc1cc(C)n(-c2nc3ccccc3c3nc(C)nn23)n1	6	nt	nt	-7	nt
COc1ccc(CSCCN)cc1Cl	6	i	i	-3	i
CCC(C)NC(=O)C1CCN(S(=O)(=O)N2CCCC2)CC1 (configuration not stated)	-1	nt	nt	2	nt
CCN(CC)S(=O)(=O)c1ccc(Cl)c(C(=O)OC)c1	4	i	i	2	i
COc1cccc(C2=NOC(C(=O)N3CCN(c4ccccc4)CC3)C2)c1OC (configuration not stated)	4	i	i	3	i
O=C(CS(=O)(=O)c1c[nH]c2ccccc12)Nc1ccc2c(c1)OCCO2	0	nt	nt	10	nt
CCOC(=O)c1ccc(N(CC(=O)NC2CCCC2)C(=O)CNC(=O)c2ccco2)cc1	-11	i	i	-12	i
CC(C)CC1(C(=O)O)NC(c2ccccc2O)C2C(=O)N(C(C)C)C(=O)C21 (configuration not stated)	0	nt	nt	12	nt
Cc1ccc(S(=O)(=O)C2(C(=O)N3CCCCC3C)CC2)cc1 (configuration not stated)	-6	nt	nt	4	nt
C[C@]12CCC(=O)C=C1CC[C@@H]1[C@@H]2C(=O)C[C@@]2(C)[C@H]1CC[C@]2(O)C(=O)CO	-3	i	i	-4	i
CCOc1ccc(NC(=O)c2nnn(CC(=O)Nc3ccccc3OCC)c2N)cc1	-6	nt	nt	-1	nt
Cc1ccc(NC(=O)Cn2c(=O)n(CCCC(=O)NCc3ccco3)c(=O)c3ccccc32)cc1	9	nt	nt	9	nt
Cc1ccc(Cn2ccc(NC(=O)c3cc(CC(C)C)on3)n2)cc1	-4	nt	nt	-3	nt
CC(=O)Nc1ccc(S(=O)(=O)Nc2nc3c(s2)CCCC3)cc1	1	i	i	-4	i
CCOC(=O)c1cnc2cc(Cl)c(OC)cc2c1NCC1CCCO1 (configuration not stated)	-1	nt	nt	5	nt
CCC(Sc1ncccc1C(=O)OCCN1CCCC1=O)C(=O)NCc1ccco1 (configuration not stated)	-1	nt	nt	4	nt
Cc1cccc(NC(=O)Nc2ccc(C#N)cc2)n1	2	nt	nt	6	nt
OCCNc1nc(OCC(F)(F)F)nc(N2CCN(C34CC5CC(CC(C5)C3)C4)CC2)n1	5	nt	nt	-16	nt

In the list so far, these have a CF3 group.
SMILES	FPRL1 binder	VCAM-1 imaging	VCAM-1 down	FPR ligand	VCAM-1 augmentation
O=C(Nc1ccccc1C(F)(F)F)c1cc(S(=O)(=O)N2CCC3(CC2)OCCO3)ccc1F	-9	nt	nt	4	nt
OCCNc1nc(OCC(F)(F)F)nc(N2CCN(C34CC5CC(CC(C5)C3)C4)CC2)n1	5	nt	nt	-16	nt

The list goes on:
SMILES	FPRL1 binder	VCAM-1 imaging	VCAM-1 down	FPR ligand	VCAM-1 augmentation
Cc1n[nH]c(C)c1S(=O)(=O)N1CCCC(C(=O)NC2CCCCC2)C1 (configuration not stated)	-2	nt	nt	4	nt
Cn1c(C(=O)N2CCCCCC2)cc2c(=O)n(C)c3ccccc3c21	5	nt	nt	5	nt
Clc1ccc(OCc2nnc(SCCN3CCCCC3)n2Cc2ccco2)cc1	3	14µM*	83*	11	i
CCOc1ccc(OCC)c(NC(=O)c2ccc(CNc3c(N4CCOCC4)c(=O)c3=O)cc2)c1	-2	nt	nt	-1	nt
Cc1nn(Cc2ccc(F)cc2)c(C)c1NC(=O)c1cc(-c2ccco2)on1	3	nt	nt	3	nt
Cc1nc2c(-c3ccccc3)c(C)nn2c(C)c1CCC(=O)NCc1ccco1	-1	i	i	6	i
O=C(NCCN1CCCC1)C1COc2ccccc2O1 (configuration not stated)	4	i	i	5	i
CCOCCCNS(=O)(=O)c1ccc2c(c1)CCN2C(=O)CC	7	nt	nt	-5	nt
O=c1c2c(nc3c(-c4ccccc4)c[nH]n13)CCCC2	1	nt	nt	6	nt

Not all compounds are listed. The share of hits here may be higher or lower than overall.
